From PubChem BioAssay
Sfp inh: qHTS Assay for Inhibitors of Bacillus subtilis Sfp phosphopantetheinyl transferase (PPTase) | Biochemical Sfp PPTase activity, qHTS | hit rate 3.5% among 310,000 | Potency, µM, inactives show max response, negative = inhibition, hits mostly inhibitors | AID 1490, 2009 | 4'-phosphopantetheinyl transferase ffp (Bacillus subtilis), Q9F4F7; active means well fitted inhibition curve with a large enough effect; inconclusive means small, poorly fitted or top-dose-only effect, or another doubt; inactive means no such curve, though single readings can be large or run the other way;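 further: the enzyme is Sfp with the accession as filed and its product quenches rhodamine fluorescence; potency means the concentration at half of the fitted maximal effect; 0% = enzyme reaction without inhibitor and -100% = no enzyme wells; top concentration of the series not given in the record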
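Fluorescence-quenching assay: 15 nM Sfp-PPTase preincubated 15 min at room temperature with compound, then 5 uM rhodamine-CoA and 12.5 uM BHQ-2-labelled YbbR peptide added. Fluorescence (ex 525/em 598 nm) read at start and after 30 min; difference gives rate.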
D2 PAM: Beta-Arrestin HTS for Positive Allosteric Modulators of the Human D2 Dopamine Receptor: Potentiators. D(2) dopamine receptor (Homo sapiens), P14416. DiscoveRx D2 beta-arrestin cells, luminescence, 90 min; 100% = 57 uM dopamine signal. potentiation, % (no concentration beside the values). hit rate 0.23% among 360,000. AID 624464, 2012; active = potentiation of 50% or more; inconclusive = 30% to 50%; inactive = 30% or less;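 further: compound concentration not given in the record; tested on top of an EC20 dose of dopamine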
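PathHunter D2 cells, attached overnight at 37 deg C, received compound in DMSO plus dopamine at EC20 (50 nM final) for 90 min at 37 deg C. Beta-arrestin recruitment was read as luminescence after 1 h with detection reagent at ambient temperature.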
D2 agonist: Beta-Arrestin HTS for Positive Allosteric Modulators of the Human D2 Dopamine Receptor: Agonists. D(2) dopamine receptor (Homo sapiens), P14416. DiscoveRx PathHunter D2 beta-arrestin, luminescence, 90 min; 100% = 57 uM dopamine signal. activation, % (no concentration beside the values). hit rate 0.084% among 360,000; in the data active = activation above about 40%; inconclusive = about 15% to 40%; inactive = below about 15%; further: compound concentration not given in the record; the text of the record calls up to 30% inactive
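Agonist mode: compounds alone added to overnight-plated D2 PathHunter cells for 90 min at 37 C, with 57 uM final dopamine (EC100) defining full response. Beta-arrestin recruitment detected by chemiluminescent reagent, read after 1 h at ambient temperature.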
TRPV1 potentiator: HTS Assay for Compounds that Act as Potentiators of the Vanilloid Receptor 1 | potentiation, % at 8.33 µM | TRPV1-expressing cells, Fluo-8 calcium influx, capsaicin EC20 potentiation; host cell line not named in the record; control for the full effect not named in the record | Transient receptor potential cation channel subfamily V member 1 (Homo sapiens), Q8NER1 | AID 540277, 2011 | hit rate 0.02% among 320,000; active means potentiation above 80%; inconclusive means 30% to 80%; inactive means below 30%; further: 0% is about no effect
Target sequence (Q8NER1 whole entry, looked up): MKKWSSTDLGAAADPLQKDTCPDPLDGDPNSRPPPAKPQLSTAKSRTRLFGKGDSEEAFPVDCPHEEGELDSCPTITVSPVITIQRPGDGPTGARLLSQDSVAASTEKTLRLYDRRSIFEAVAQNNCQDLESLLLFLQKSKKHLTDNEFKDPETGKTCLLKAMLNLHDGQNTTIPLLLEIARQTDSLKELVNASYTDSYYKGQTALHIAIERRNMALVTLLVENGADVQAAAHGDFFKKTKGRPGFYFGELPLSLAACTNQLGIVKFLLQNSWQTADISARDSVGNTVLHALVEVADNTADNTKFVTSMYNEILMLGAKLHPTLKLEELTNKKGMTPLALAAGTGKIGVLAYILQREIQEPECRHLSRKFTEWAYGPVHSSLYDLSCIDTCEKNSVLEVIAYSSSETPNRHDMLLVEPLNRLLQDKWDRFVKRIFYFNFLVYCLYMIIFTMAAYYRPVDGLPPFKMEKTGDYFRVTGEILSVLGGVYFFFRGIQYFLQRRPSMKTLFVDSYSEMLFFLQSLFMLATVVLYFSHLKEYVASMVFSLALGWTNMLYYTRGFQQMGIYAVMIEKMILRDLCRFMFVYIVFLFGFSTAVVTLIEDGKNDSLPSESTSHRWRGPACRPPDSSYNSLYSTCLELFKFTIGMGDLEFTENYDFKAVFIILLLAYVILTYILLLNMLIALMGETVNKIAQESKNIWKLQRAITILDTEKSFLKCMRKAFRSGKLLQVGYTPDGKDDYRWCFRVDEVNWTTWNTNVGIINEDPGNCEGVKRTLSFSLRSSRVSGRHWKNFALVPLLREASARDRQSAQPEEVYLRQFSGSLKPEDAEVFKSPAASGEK
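TRPV1-expressing cells were cultured overnight at 35.5C and loaded with Fluo-8 calcium dye for 40 to 90 min at room temperature. After a 10 s baseline, compound was added and calcium influx was read kinetically for 3 min (ex 480/em 520 nm).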
CtBP-E1A inh: qHTS Assay for Inhibitors of the CtBP/E1A Interaction | AlphaScreen GST-E1A/His-CtBP binding, 1536-well; hits give low values; control for the full effect not named in the record | activity change, % (concentration not given with the values) | hit rate 0.49% among 340,000 | AID 651724, 2012; in the data active means activity change below about -65%; inconclusive means about -30% to -65%; inactive means above about -30%; further: on the % scale 0 is the no-effect control and ±100 the full control effect
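GST-E1A and His-tagged CtBP (125 nM each as 5X stock) were preincubated with pin-transferred compound for 2 h at 37 °C in the dark, then glutathione donor and nickel acceptor beads were added for 1 h before AlphaScreen reading.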
Six1-Eya2 inh: qHTS Assay for Inhibitors of the Six1/Eya2 Interaction; hit rate 0.56% among 360,000; activity change, % (test concentration not listed); AlphaScreen GST-Six1/His-Eya2 binding, biochemical; hits give low values; control for the full effect not named in the record; in the data active = activity change below about -65%; inconclusive = about -30% to -65%; inactive = above about -30%; further: on the % scale 0 is the no-effect control and ±100 the full control effect; compound concentration not given in the record
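AlphaScreen luminescence read after one hour at 37 °C in darkness. Pin-transferred compounds met GST-Six1 and His-Eya2 protein (5X stock 250 nM/500 nM) plus glutathione donor and Ni-chelate acceptor beads (5X, 50 ug/mL).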
PINK1 modulator: A Quantitative High throughput Screen to Identify Chemical Modulators of PINK1 Expression; PINK1 immunofluorescence, high-content cytometry, 24 h; Potency, µM (doses to about 76.6 µM), for the others: at the highest dose activation (PINK1 increase), actives largely listed as activators; hit rate 0.2% among 410,000; active = well fitted activation curve with a large enough effect; inconclusive = small, poorly fitted or top-dose-only effect; inactive = flat fitted curve, though single readings scatter; cell line not stated here;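 further: potency means the concentration at half of the fitted maximal effect; % of control where 0% means no effect; nearly all actives have a fitted effect of over 65% in size; a mitochondrial uncoupler was the plate control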
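Stable cell line treated 24 h with compounds at 5 concentrations (CCCP controls), then fixed and immunostained for PINK1 plus nuclear and cell stains; PINK1 immunofluorescence quantified by laser-scanning microplate cytometry.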
Active calls of the source: *; ? = inconclusive; . = not tested or not shown; [ ] = another dose, or the depositor's remark. Random draw from the library; overall some 3.7% were active at least once.

SMILES,Sfp inh,D2 PAM,D2 agonist,TRPV1 potentiator,CtBP-E1A inh,Six1-Eya2 inh,PINK1 modulator
CC(C)CCNC(=O)CC1Nc2c3ccccc3nc(=S)n2C1=O (stereo unspecified),-16%,-17,-2.0,-23,2,5,.
COc1ccc(C2C(Oc3ccccc3C)C(=O)N2Cc2ccc(F)cc2)cc1OC (stereo unspecified),12%,-15,-5.9,-9,2,-9,-1.8%
Cc1cc(C)c2ccc(NN)nc2c1O,50µM*,-21,-7.3,8,?,?,-0.1%
O=C1c2cccc3cccc(c23)C(=O)N1CC1CCN(CC(O)COCc2ccc3c(c2)OCO3)CC1 (stereo unspecified),3%,-31,-2.5,2,9,-11,-1.6%
O=C(COC(=O)c1ccc(Cl)nc1)NNC(=O)c1ccc(Cl)cc1,.,-2,-0.5,-14,0,-2,-0.3%
CC(O)CN(Cc1ccc(Cl)cc1)CC(C)O (stereo unspecified),-20%,-6,-0.7,-12,3,1,.
O=C1c2sccc2-c2cccc3cccc1c23,.,-15,-3.0,.,-6,?,-0.3%
CCc1nc(SCC(=O)Nc2cccc3ccccc23)[nH]c(=O)c1C,4%,2,1.9,5,4,-1,0.5%
CCc1cc(C(=O)OC)c(NC(=O)c2cc(Br)cs2)s1,-18%,-6,-3.5,4,22,34,6.1%[38.3 µM]
Cc1cc2c(C)cc(=O)[nH]c2cc1NC(=O)CCl,12%,-8,-0.3,.,-6,7,3.9%
CN(Cc1cccc(Cl)c1Cl)C(=O)c1cc(S(=O)(=O)N2CCOCC2)ccc1F,.,-5,-1.5,.,0,-1,6.1%
CC(C)[C@H](NC(=O)c1ccccc1)C(=O)N1CCc2ccccc21,3%,-5,3.0,26,13,-2,4.8%
Cc1nc(-c2cccs2)ccc1C(=O)O,11%,2,1.1,7,2,1,0.6%
CCC/C=C/c1ccc(CN2C(C(C)C)C(=O)N(Cc3cn(CC4CCCCC4)nn3)CCS2(=O)=O)cc1 (stereo unspecified),.,-4,-8.0,.,?,-8,2.9%
Cc1ccc(N2CCN(/N=C/c3cccs3)CC2)cc1,12%,3,0.8,-2,-12,-12,-0.1%[38.3 µM]
COc1ccc(-c2csc(C(O)c3ccc(F)cc3)n2)cn1 (stereo unspecified),.,2,4.0,.,4,6,1.4%
CCOC(=O)C1(O)CSc2nc3sc(C(=O)O)c(C)c3c(=O)n21 (stereo unspecified),-9%,-1,0.9,-15,0,10,1.4%
O=C(Nc1nnc(-c2ccccc2SCc2ccccc2F)s1)Nc1ccccc1F,?,3,-3.9,1,-11,-1,17%
O=C(Nc1cccc(O)c1)c1ccc([N+](=O)[O-])cc1Cl,6%,5,1.6,2,-9,1,-0.2%
COc1c(C(=O)N2CCCC2)ccc2ccccc12,7%,-4,-3.0,7,3,0,0.7%
O=C(CCCNS(=O)(=O)c1cccc2nsnc12)NC1CCCCC1,-7%,-4,-3.0,-14,-7,-15,1.4%
Cc1cccc(C(=O)NNC(=O)c2ccc(NS(=O)(=O)c3cccs3)cc2)c1C,.,-2,2.2,-12,2,3,1.5%
COc1ccc(-n2c(SCC3OCCO3)nc3c(sc(=S)n3-c3ccccc3)c2=O)cc1OC,9%,-2,3.5,7,-17,-16,2.5%
CCOC(=O)Cc1nn(Cc2ccccc2)c(=O)c2ccccc12,-7%,-5,-0.9,-15,-7,-4,1.9%
CC(C)(Oc1ccc(Cl)cc1)C(=O)NCC(c1cccs1)N1CCOCC1 (stereo unspecified),.,8,0.0,-8,4,4,0.4%
COc1ccc(CCNC(=O)COC(=O)/C=C/c2ccc3c(c2)OCO3)cc1OC,.,8,-0.7,.,-16,-9,1.4%
Nc1nc2n(n1)C(=O)CC(c1ccccc1)N2 (stereo unspecified),28%,-7,1.7,7,.,2,-0.3%
Cc1ccccc1-c1nc(CSc2nc3c(c(=O)[nH]2)CCC3)c(C)o1,29%,13,2.0,3,-27,6,4.4%
COc1ccc(S(=O)(=O)N2CCCCC2)cc1NC(=O)CCCOc1ccccc1,.,-4,-6.9,11,-18,-1,-1.5%
O=c1oc2ccccc2c(NCCO)c1[N+](=O)[O-],26%,15,9.7,4,.,-7,0.9%
CCOC(=O)C1(NC(=O)C2(NC(=O)CN3C(=O)c4ccccc4C3=O)CCCC2)CCCC1,.,-26,-2.5,.,2,-5,-0.7%
O=C(COc1ccccc1)NCC(=O)N/N=C/c1ccccc1,10%,4,-0.4,0,0,-2,-1.2%
O=C(O)c1ccccc1Nc1ccnc(C(F)(F)F)c1,8%,3,-0.4,-2,4,14,-3.0%
CC(O)C(NC=C1C(=O)OC(C)(C)OC1=O)C(=O)O (stereo unspecified),7%,-5,-2.2,-2,10,-3,-0.8%
COCc1cc(C)nc(Nc2ccccc2C)c1C#N,-9%,-6,-1.6,24,15,14,0.4%[38.3 µM]
CCCCCCCCCCOC(=O)Cn1c(COc2ccc(Cl)cc2)[n+](C)c2ccccc21,25µM*,-45,-17,-3,.,-6,-1.1%
CC1(C(=O)Nc2ccc(F)cc2F)CCN1C(=O)Cc1ccc(Cl)cc1Cl (stereo unspecified),.,-1,3.6,.,10,9,0.9%
CSc1ccc(C=O)cc1,.,-4,-1.3,-1,4,2,1.2%
Cn1c(N)c(C(=O)COC(=O)CSc2ccc3ccccc3c2)c(=O)n(C)c1=O,-7%,-1,-1.7,22,-15,2,0.6%
O=C(CSc1nnc(-c2ccc(OC(F)F)cc2)o1)N1CCOCC1,11%,4,-1.9,-28,2,3,-0.4%[38.3 µM]
C/C(=N\N1CCN(c2ccccc2)CC1)c1cccs1,4%,-1,-1.8,-6,33,10,14%
Cc1cc(C(=O)CSc2nnc(-c3ccncc3)n2-c2ccccc2)c(C)n1C,-2%,-5,-4.4,11,-1,-12,1.0%
CCOC(=O)c1[nH]c2ccccc2c1NC(=O)Nc1ccc(OC)cc1,-22%,-9,-4.2,13,-6,-8,4.0%
COc1ccc(NC(=O)CSc2nnc(C)c3ccccc23)cc1,0%,-10,-4.0,12,.,-15,1.6%
CCOc1ccc(NC(=O)C(C)Oc2ccccc2C(=O)Nc2ccc(C)c(Cl)c2)cc1 (stereo unspecified),19%,7,-2.3,2,5,-1,?
N#Cc1nc(Cc2cccc3ccccc23)oc1N1CCOCC1,9%,-11,-4.0,-14,-3,-15,11%[38.3 µM]
O=C(NC(Cc1c[nH]c2ccccc12)c1nnc2n1CCCCC2)c1ccc(Cl)cc1 (stereo unspecified),19%,1,2.1,-9,-8,-3,3.3%[38.3 µM]
CN(C(=O)c1ccc(-c2nn(C)c(=O)c3ccccc23)cc1)c1ccccc1,-7%,0,2.3,1,-2,0,.
CCCCNC(=O)COc1ccccc1[N+](=O)[O-],4%,-4,-1.2,-16,4,13,2.6%
COC(=O)C(C)(C)ONC(=O)Nc1ccccc1Br,13%,-31,-2.6,-2,15,0,-1.3%
CC(=O)c1cccc(NC(=S)NC(=O)c2ccccc2Br)c1,-7%,-22,-1.7,2,-1,4,1.6%
CN1c2ccc(Cl)cc2C(=O)NC1c1ccc([N+](=O)[O-])s1 (stereo unspecified),2%,0,-20,-4,7,3,2.1%
CC(=O)N1CCc2c(sc(NC(=O)CCS(=O)(=O)c3ccccc3)c2C#N)C1,-2%,7,-2.6,2,6,-2,3.7%
O=C1Nc2ccccc2N(C(=O)c2ccc3ccccc3c2)C1c1nc2ccccc2[nH]1 (stereo unspecified),.,.,.,.,3,-22,-1.1%
O=C(COC(=O)c1cccc(Cl)c1)NC1CCCCCCC1,.,-2,-4.1,-14,14,9,0.5%
CCCOC(=O)c1ccc(NC(=O)COC)cc1,12%,1,-2.5,-4,2,5,0.1%

Next compounds.
SMILES,Sfp inh,D2 PAM,D2 agonist,TRPV1 potentiator,CtBP-E1A inh,Six1-Eya2 inh,PINK1 modulator
NS(=O)(=O)c1ccc(NC(=S)NCC2CCCO2)cc1 (stereo unspecified),45µM*,-13,-0.5,-1,-1,5,-0.7%
O=C(NC1(C(F)(F)F)NC(=O)N(C2CCCCC2)C1=O)C1CC1 (stereo unspecified),8%,-7,-4.5,7,-3,3,4.9%
CCCC1=Nc2cc(C(=O)NCCN3CCOCC3)ccc2Sc2ccc(C)cc21,-18%,-9,12,-18,-4,-4,2.7%
Cc1c(Cl)cnc(NC(=O)COC(=O)c2ccc([N+](=O)[O-])s2)c1Cl,?,9,2.1,1,-18,-21,-1.4%
CC(C)CNC(=O)COC(=O)c1n[nH]c2ccccc12,10%,-4,-0.9,14,11,-20,1.7%
Cc1cnc(CN(C)Cc2c(C(=O)N3CCc4ccccc4C3)nc3ccc(Cl)cn23)[nH]1,-18%,-11,-3.8,-13,3,0,-1.5%
COc1cccc(OC)c1C(=O)Nc1ccccc1N1CCCCC1,11%,-12,-3.6,2,-5,1,13%
COC(=O)c1ccccc1OCC(=O)N1CCN(c2ccc(Cl)cc2)CC1,16%,-2,-4.4,30,-5,0,1.9%
CCOc1ccc(-c2cc3nc(C4CCN(C(=O)OC(C)(C)C)CC4)c(C(=O)O)cn3n2)cc1,1%,-8,-3.5,-1,-6,-3,5.0%[38.3 µM]

A second format for part of the listing above:
COc1cccc(OC)c1C(=O)Nc1ccccc1N1CCCCC1
  Sfp inh: 11%; D2 PAM: -12; D2 agonist: -3.6; TRPV1 potentiator: 2; CtBP-E1A inh: -5; Six1-Eya2 inh: 1; PINK1 modulator: 13%
NS(=O)(=O)c1ccc(NC(=S)NCC2CCCO2)cc1 (stereo unspecified)
  Sfp inh: 45µM*; D2 PAM: -13; D2 agonist: -0.5; TRPV1 potentiator: -1; CtBP-E1A inh: -1; Six1-Eya2 inh: 5; PINK1 modulator: -0.7%
